FGF22 binding = binders of human FGF22 protein, primary screen, FGF22 synaptogenesis inhibitor project, biophysical, thermal shift, single point. recombinant FGF22 thermal shift, SYPRO orange fluorescence; percent of sucrose octasulfate shift, DMSO zero. calls only at 9.99 µM. 340,000 tested, 1.5% active. AID 651658, 2012;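 active = melting point raised past a set limit in the mean and every replicate; three in four hits are not shown here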
Target sequence (Q9HCT0 whole entry, looked up): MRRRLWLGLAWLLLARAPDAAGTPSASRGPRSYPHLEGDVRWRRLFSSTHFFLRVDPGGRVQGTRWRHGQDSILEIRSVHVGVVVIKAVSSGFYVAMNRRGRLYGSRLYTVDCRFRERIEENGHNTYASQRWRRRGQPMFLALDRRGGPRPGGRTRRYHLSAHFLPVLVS
Ecoli rRNA inh = reduced GFP signal of wild-type E. coli, primary screen, bacterial rRNA inhibitor project, GFP/RFP fluorescence, OD600, single point; E. coli WT GFP vs humanized-ribosome RFP mutants, 24 h; hits give low values; DMSO median 0, no signal -100; GFP signal change (wild-type ribosome), % (test concentration not listed); 350,000 tested, 1.6% active; AID 720706, 2013;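 active = significant combined selectivity score with lowered wild-type GFP, culture density cut under 30%, mutant RFP and density less affected; inactive = any of these conditions unmet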; note: one replicate is shown; some compounds called inactive have numbers as strong as hits
MLL AF4-AF9 inh = inhibitors of AF4 peptide binding to AF9, primary screen, biochemical, AlphaScreen, biotin-AF4 peptide, FLAG-AF9, single point. 350,000 tested, 0.47% active. inhibition, % at 10 µM. Protein AF-9 (Homo sapiens), P42568;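 active = every replicate reaching a set inhibition limit, whatever the replicate mean, cut at about 25% in these data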;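 note: 0% = plate neutral control median and 100% = total signal loss; the record names both 10 and 1 µM as test concentration; the first replicate is given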
Target sequence (P42568 whole entry, looked up): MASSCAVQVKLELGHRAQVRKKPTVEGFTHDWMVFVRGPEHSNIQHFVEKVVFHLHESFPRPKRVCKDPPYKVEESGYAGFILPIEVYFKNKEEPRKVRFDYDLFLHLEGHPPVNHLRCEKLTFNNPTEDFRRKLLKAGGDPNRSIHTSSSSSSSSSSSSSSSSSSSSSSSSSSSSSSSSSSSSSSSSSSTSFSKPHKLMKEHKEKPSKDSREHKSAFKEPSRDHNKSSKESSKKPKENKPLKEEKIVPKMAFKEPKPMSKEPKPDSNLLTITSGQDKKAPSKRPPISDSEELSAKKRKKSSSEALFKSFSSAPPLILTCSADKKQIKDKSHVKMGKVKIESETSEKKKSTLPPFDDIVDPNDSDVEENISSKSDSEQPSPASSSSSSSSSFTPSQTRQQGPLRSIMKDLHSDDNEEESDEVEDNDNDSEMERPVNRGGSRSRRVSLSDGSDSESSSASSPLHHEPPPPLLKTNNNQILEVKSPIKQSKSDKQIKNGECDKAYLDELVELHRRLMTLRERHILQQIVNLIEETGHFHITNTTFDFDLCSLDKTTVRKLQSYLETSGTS
Ecoli rRNA inh OD600 = recorded beside Ecoli rRNA inh, whose call it bears; OD600 change, %; measured here: OD600 growth;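 optical density of the mix in the first replicate; 0 = DMSO median and -100 = no signal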
Ecoli rRNA inh RFP = also measured in Ecoli rRNA inh; calls as there; RFP signal change, %; measured here: RFP humanized mutant strains;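 first replicate; 0 = DMSO median and -100 = no signal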
An asterisk follows results filed as active; i = inactive; · = no result given; & = joins results of further samples. Some of the compounds tested. The share of hits here may be higher or lower than overall.

SMILES	FGF22 binding	Ecoli rRNA inh	Ecoli rRNA inh OD600	Ecoli rRNA inh RFP	MLL AF4-AF9 inh
COc1cccc(C(NC(C)=O)c2nc(-c3cccc(C(=O)O)c3)cs2)c1 (centres undefined)	i	-2.5	-2.5	-2.4	0.6
CCCc1nc2ccc(Cl)cn2c1Cc1ccsc1	i	-1.3	-2.0	3.4	0.4
C[C@H](CO)N1C[C@H](C)[C@H](CN(C)Cc2ccc3c(c2)OCCN3C)OCc2ccccc2-c2ccccc2C1=O	i	-0.2	4.1	-1.2	16.4
CC(C)NC(=O)N(C)C[C@@H]1Oc2ccc(NS(=O)(=O)c3ccc(F)cc3)cc2CC(=O)N([C@H](C)CO)C[C@@H]1C	i	1.2	6.7	-1.8	-0.3
CCCNC(=O)N(C)C[C@H]1Oc2cc(C3=CCCC3)ccc2S(=O)(=O)N([C@@H](C)CO)C[C@@H]1C	i	-0.7	-19.5	-0.9	-2.3
C[C@H](CO)N1C[C@H](C)[C@H](CN(C)S(C)(=O)=O)Oc2ccc(NC(=O)C3CCCCC3)cc2C1=O	i	-0.3	-0.4	0.8	-0.3
O=C(C1CCOCC1)N1[C@H](CO)[C@@H](c2ccccc2)C12CN(Cc1cccnc1)C2	i	3.2	-0.2	-1.7	3.2
CN(C)C(=O)C[C@H]1CC[C@H]2[C@@H](COC[C@@H](O)CN2C(=O)C2CC2)O1	i	5.4	11.9	-3.5	-0.8
O=C(Nc1cccc(Cl)c1)N[C@@H]1CC[C@@H](CCNC(=O)C2CCC2)O[C@@H]1CO	i	-6.2	-6.0	-2.1	-4.0
CC(C)S(=O)(=O)NC(=O)C1(C)CCN1C(=O)Cc1ccccc1 (centres undefined)	i	3.7	13.6	-17.7	1.5
Cc1ccc(-c2ccc3c(c2)O[C@H](CN(C)C)[C@@H](C)CN([C@@H](C)CO)S3(=O)=O)cc1	i	-2.0	-6.2	4.6	-4.0
CN1C[C@H]2[C@@H](c3ccccc31)[C@H](CO)N2S(=O)(=O)c1ccccc1	i	-0.1	5.3	2.1	-1.0
COc1ccc(NS(=O)(=O)c2ccc(C)c(C(=O)NCc3ccccc3CN3CCCC3)c2)cc1	i	-4.7	-2.5	-0.4	0.5
CN1C(=O)c2cc(NC(=O)c3cccc(F)c3)ccc2OC[C@H]2O[C@H](CC(=O)NCC3CCCCC3)CC[C@@H]21	i	2.7&-3.9	2.7&-7.8	2.0&2.7	-3.8&-5.3
N#C[C@@H]1[C@@H](c2ccccc2-c2ccc(F)cc2)[C@H](CO)N1C(=O)Cc1ccccc1	i	-6.3	-35.1	28.1	4.3
COc1cccc(CNc2nc3cc(-c4ccccc4C)sc3c(=O)n2C)c1	i	6.8	-6.8	5.8	-1.8
Cc1cccc(S(=O)(=O)N2CCCCN3[C@H](CO)[C@@H](c4ccc(-c5cccnc5)cc4)[C@H]3C2)c1	i	-4.1	-25.5	5.2	-4.5
COc1ccccc1-c1cnc2c(c1)C(=O)N([C@@H](C)CO)C[C@@H](C)[C@@H](CN(C)Cc1ccc(F)cc1)O2	i	0.0	-1.8	2.1	-3.5
Nc1[nH]c(C(=O)c2ccccc2)c(-c2ccc(Br)cc2)c1C(=O)NC1CCCCC1	i	-7.6	4.5	8.5	-3.8
FC(F)(F)c1ccccc1Cc1c(-c2ccccc2)nc2c3ccccc3ccn12	·	2.2	3.7	9.3	-4.4
CCC(=O)N(C)C[C@H]1Oc2ncc(-c3ccc(C)cc3)cc2C(=O)N([C@H](C)CO)C[C@@H]1C	i	0.9	2.2	-2.4	-8.5
COCC1CN(CCc2ccc(F)cc2)S(=O)(=O)c2c(F)cccc2O1 (centres undefined)	i	-22.1*	-15.5*	-1.6*	-0.8
O=C(Cc1ccccn1)N[C@H]1CC[C@@H](CC(=O)N2CCCCC2)O[C@@H]1CO	i	4.1	6.5	-5.5	1.7
C[C@H]1CN([C@@H](C)CO)S(=O)(=O)c2ccc(C#Cc3ccccn3)cc2O[C@@H]1CN(C)Cc1cccc(F)c1	i	-0.5	-8.0	2.3	-0.5
COc1ccccc1-c1ccc2c(c1)O[C@@H](CN(C)C(=O)c1ccccc1)[C@H](C)CN([C@@H](C)CO)S2(=O)=O	i	-10.3	-28.5	2.3	1.8

3 structures out of the list, ordered by count of non-hydrogen atoms, low to high:
SMILES	FGF22 binding	Ecoli rRNA inh	Ecoli rRNA inh OD600	Ecoli rRNA inh RFP	MLL AF4-AF9 inh
CN1C[C@H]2[C@@H](c3ccccc31)[C@H](CO)N2S(=O)(=O)c1ccccc1	i	-0.1	5.3	2.1	-1.0
FC(F)(F)c1ccccc1Cc1c(-c2ccccc2)nc2c3ccccc3ccn12	·	2.2	3.7	9.3	-4.4
Cc1cccc(S(=O)(=O)N2CCCCN3[C@H](CO)[C@@H](c4ccc(-c5cccnc5)cc4)[C@H]3C2)c1	i	-4.1	-25.5	5.2	-4.5

(more compounds)
SMILES	FGF22 binding	Ecoli rRNA inh	Ecoli rRNA inh OD600	Ecoli rRNA inh RFP	MLL AF4-AF9 inh
C[C@H](CO)N1C[C@H](C)[C@H](CN(C)Cc2cncnc2)Oc2ncc(C#CC(C)(C)O)cc2C1=O	i	4.8	11.1	-0.4	-7.2
C[C@@H]1CCCCO[C@H](CN(C)S(=O)(=O)c2ccccc2)[C@H](C)CN([C@H](C)CO)C(=O)c2cc(NC(=O)Nc3ccc(C(F)(F)F)cc3)ccc2O1	i	1.6	4.0	0.6	-0.9
COC(=O)c1cc2c(c3c4cc(OC)ccc4n(S(=O)(=O)c4ccccc4)c13)C(=O)N(Cc1ccc(C(F)(F)F)cc1)C2	i	5.1	1.2	-1.7	1.1
C[C@H]1CN([C@@H](C)CO)C(=O)c2cc(C#CCC3CCCC3)cnc2O[C@@H]1CN(C)C(=O)c1cnccn1	i	0.3	3.7	-3.0	-0.3
C[C@@H]1CN([C@H](C)CO)C(=O)c2cc(NS(C)(=O)=O)ccc2O[C@@H](C)CCCCO[C@@H]1CN(C)C(=O)c1ccccc1	i	-1.3	4.3	-5.3	0.0
Cc1ccc(S(=O)(=O)N(C)C[C@H]2Oc3c(NS(=O)(=O)c4ccc(Cl)cc4)cccc3C(=O)N([C@@H](C)CO)C[C@H]2C)cc1	i	0.0	-8.2	1.5	-0.2
CCCCN(C=O)c1c(CC)nc2c(OCc3ccccc3C)cccn12	i	-8.6	-12.6	10.0	-2.2
Cc1ccc(S(=O)(=O)Nc2cccc3c2O[C@@H](CN(C)C(=O)Nc2ccc(C(F)(F)F)cc2)[C@H](C)CN([C@H](C)CO)C3=O)cc1	i	-5.8	-10.4	-0.7	-6.7
CCCNC(=O)C[C@H]1C[C@@H]2c3cc(NC(=O)C4CCOCC4)ccc3O[C@@H]2[C@H](CO)O1	i	1.6	5.7	0.5	-2.7
O=C(c1ccccn1)N1C[C@H]2[C@@H](c3ccccc31)[C@@H](CO)N2C(=O)Nc1ccccc1F	i	3.4	9.3	-2.0	-2.4
C[C@H](CO)N1C[C@H](C)[C@H](CN(C)S(=O)(=O)c2ccccc2)OCCCC[C@H](C)Oc2ccc(NS(=O)(=O)c3cccs3)cc2C1=O	i	-6.5	-5.7	-0.6	-0.2
COc1ccc(CN(C)C[C@H]2Oc3c(NC(=O)NC4CCCCC4)cccc3C(=O)N([C@H](C)CO)C[C@@H]2C)cc1	i	-8.9	-13.3	-0.3	8.1
C[C@H]1CN([C@@H](C)CO)C(=O)Cc2cc(NC(=O)Nc3ccc4c(c3)OCO4)ccc2O[C@@H]1CN(C)C(=O)Nc1ccc(C(F)(F)F)cc1	i	3.4	3.7	-2.8	3.2
CN1CCCCN2[C@H](CO)[C@@H](c3ccc(/C=C/c4ccccc4)cc3)[C@H]2C1	i	3.3	2.9	-0.8	10.4
COC(=O)N1CCCCC1c1cc(C(=O)N2CCOCC2)no1 (centres undefined)	i	8.3	25.0	-1.9	1.3
C[C@@H]1CN([C@H](C)CO)C(=O)c2cccc(NC(=O)C3CCOCC3)c2O[C@H]1CN(C)S(=O)(=O)c1ccc(Cl)cc1	i	3.2	1.7	-0.2	-2.8
CC(=O)N1[C@@H](CO)[C@@H](c2ccccc2)C12CN(C(=O)c1ccc3c(c1)OCO3)C2	i	0.8	3.2	-2.8	-2.8
C[C@H](CO)N1C[C@H](C)[C@@H](CN(C)Cc2ccccc2)Oc2ccc(NC(=O)Nc3ccc(F)cc3)cc2CC1=O	i	-58.8	-74.5	-15.1	6.6
C[C@H](NC(=O)C[C@@H]1CC[C@@H]2[C@H](COc3ccc(NC(=O)C4CCOCC4)cc3C(=O)N2C)O1)c1ccccc1	i	-0.4	-4.2	-0.2	-1.0
C[C@H]1CN([C@@H](C)CO)C(=O)c2cc(NC(=O)Cn3cnnn3)ccc2O[C@H]1CN(C)Cc1ccncc1	i	6.0	13.0	1.1	-2.3
O=C(C[C@H]1C[C@@H]2c3cc(NC(=O)C4CCC4)ccc3O[C@@H]2[C@H](CO)O1)NCc1ccccc1F	i	0.8	-4.6	-0.3	-0.1
C[C@H](CO)N1C[C@H](C)[C@H](CN(C)S(=O)(=O)c2cccs2)Oc2ccc(NC(=O)Nc3ccc(F)cc3)cc2CC1=O	i	-4.6	-17.0	5.0	3.7
Nc1ccn(CCCNCC(c2ccccc2)c2ccccc2)c(=O)n1	i	-2.8	3.4	-2.8	-3.3
CO[C@H]1CN(C)C(=O)c2ccc(NC(=O)C3CCOCC3)cc2OC[C@H](C)N(Cc2cccnc2)C[C@H]1C	i	-1.9	-2.7	0.1	-0.1
Cc1noc(C)c1S(=O)(=O)Nc1ccc2c(c1)C(=O)N([C@@H](C)CO)C[C@H](C)[C@H](CN(C)S(=O)(=O)c1ccc(F)cc1)OCCCC[C@H](C)O2	i	3.3	3.6	7.4	1.4

Part of the list above, reduced to Ecoli rRNA inh OD600:
| Structure | Ecoli rRNA inh OD600 |
| --- | --- |
| CN(C)C(=O)C[C@H]1CC[C@H]2[C@@H](COC[C@@H](O)CN2C(=O)C2CC2)O1 | 11.9 |
| C[C@H](CO)N1C[C@H](C)[C@H](CN(C)S(=O)(=O)c2ccccc2)OCCCC[C@H](C)Oc2ccc(NS(=O)(=O)c3cccs3)cc2C1=O | -5.7 |

(further entries)
SMILES	FGF22 binding	Ecoli rRNA inh	Ecoli rRNA inh OD600	Ecoli rRNA inh RFP	MLL AF4-AF9 inh
CCCC(=O)Nc1ccc2c(c1)C(=O)N(C)C[C@H](OC)[C@H](C)CN(C(=O)CN(C)C)[C@H](C)CO2	i	0.7	-4.3	0.4	2.6
COc1ncccc1-c1cc2nc(NCCCN(C)C)n(C)c(=O)c2s1	i	-8.4	-1.7	4.0	3.7
COc1ccc(S(=O)(=O)Nc2ccc3c(c2)C(=O)N([C@H](C)CO)C[C@H](C)[C@H](CN(C)C(=O)NC2CCCCC2)OCCCC[C@@H](C)O3)cc1	i	3.0	-4.1	-0.3	0.5
COc1ccc(C#Cc2ccc3c(c2)[C@@H]2[C@@H](CCN2C(=O)c2ccccc2F)[C@@H](CO)N3)cc1	i	-2.4	1.0	10.1	-3.2
COc1ccc(C(O)c2ncc(-c3ccc4ccccc4c3)[nH]2)cc1F (centres undefined)	i	-24.7	-50.5	21.4	8.1
COc1ccccc1-c1cnc2c(c1)C(=O)N([C@H](C)CO)C[C@@H](C)[C@H](CN(C)Cc1cncnc1)O2	i	1.2	0.8	-2.6	-6.4
C[C@H]1CN([C@@H](C)CO)C(=O)Cc2cc(NS(=O)(=O)c3cccs3)ccc2O[C@@H]1CN(C)C(=O)Nc1ccc2c(c1)OCO2	i	1.7	3.6	-0.5	-3.0
O=C(Nc1ccc(C(=O)N2CCOCC2)cc1)C1CCCC1	i	-4.4*	10.3*	1.9*	-5.4
CNC(=O)C[C@@H]1CC[C@H]2[C@H](COc3ccc(NC(=O)c4cccc(OC)c4)cc3C(=O)N2C)O1	i	0.0	-0.2	-0.9	-5.1
COc1ccc(NC(=O)N2C[C@@H](O)COC[C@@H]3O[C@H](CC(=O)NCc4ccccc4OC)CC[C@H]32)cc1	i	-1.3	6.5	0.5	-1.5
CC(NC1=CC(=O)c2cccnc2C1=O)C(O)c1ccccc1 (centres undefined)	i	4.4	-9.3	12.8	1.7
Cn1nc(N)c2ncc(C(Cl)(Cl)Cl)nc21	i	5.7	6.5	1.4	1.6
CNC(=O)C[C@H]1CC[C@H]2[C@@H](COc3ccc(NS(=O)(=O)c4cccc(F)c4)cc3C(=O)N2C)O1	i	-0.5	-2.2	0.7	-1.2
S=C(NN=Cc1ccccn1)N(Cc1ccccn1)Cc1ccccn1	i	-10.6	-5.3	5.7	11.5
CN1C(=O)[C@H]2[C@@H](c3ccccc3)N[C@]3(CCCN(Cc4ccco4)C3=O)[C@H]2C1=O	i	-1.3	2.4	-1.4	1.7
COCC(=O)NC[C@@H]1[C@H](c2ccc(C3=CCCC3)cc2)[C@H](CO)N1C(=O)C1CC1	i	-0.2	5.2	-2.2	5.7
CC(=O)Nc1cccc(-c2ccnc3c2CC(C)(C(=O)Nc2ccc(Cl)cc2)O3)c1 (centres undefined)	i	-35.0	-55.2	-9.7	-0.5
COc1ccc(NC(=O)Nc2cccc3c2O[C@H](CN(C)S(=O)(=O)c2ccc(OC)cc2)[C@@H](C)CN([C@@H](C)CO)C3=O)cc1	i	-1.1	-4.2	2.8	3.1

Bioassay records (PubChem)
